# CBX7 AlphaScr – blocks human CBX7 binding to H3K27me3 peptide; O95931; AlphaScreen His6-CBX7 / biotin-H3K27me3 peptide binding; active compounds read low; normalised signal (fraction of DMSO) (no concentration beside the values); hit rate 1.1% among 66,000; in the data active = normalised signal below about 0.5;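 also: 100 nL library stock added to about 20 µL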
# Target sequence (O95931 whole entry, looked up): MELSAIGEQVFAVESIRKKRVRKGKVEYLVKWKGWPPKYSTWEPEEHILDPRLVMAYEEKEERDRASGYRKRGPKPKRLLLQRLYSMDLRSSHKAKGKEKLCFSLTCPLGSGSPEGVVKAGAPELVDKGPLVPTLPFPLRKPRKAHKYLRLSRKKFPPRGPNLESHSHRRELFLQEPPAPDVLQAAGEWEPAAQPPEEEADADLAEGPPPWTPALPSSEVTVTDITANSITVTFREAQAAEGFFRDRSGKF
# CBX7 AlphaScr z-score – second read-out of CBX7 AlphaScr, no call of its own (marks repeat the call); z-score; measured here: z-score of CBX7 signal; some inactives read as strong as hits; reference of the scale not given here;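 same signal on another scale; lower means less binding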
# * hit, by the source's call; & = joins results of further samples. A portion of the library, so the mix of outcomes need not match the whole.
SMILES,CBX7 AlphaScr,CBX7 AlphaScr z-score
COc1ccc(CNC(=O)c2cc3sccc3n2Cc2ccc(Cl)cc2)cc1,0.946,-1.49
Cc1cccc(CSc2nc3ccncc3n2Cc2nc(-c3ccccc3C)oc2C)c1,1.01,0.146
Cc1ccc(-c2noc(COc3ccc(Cl)c(C)c3)n2)cc1,1.17,1.19
CCc1ccc(NC(=O)N(C2CCCCCC2)C2CCN(C(C)=O)CC2)cc1,1,0.0792
Cc1ccc(NC(=O)C2CCCN2S(=O)(=O)c2ccc3c(c2)CCC(=O)N3)cc1C (stereo not given),1.03,0.507
COC(=O)c1c[nH]n2c(=O)c(Cc3cccc(Cl)c3)c(C)nc12,0.981,-0.486
Cc1cccc(CCNC(=O)Cc2ccc(NC3=NC4CS(=O)(=O)CC4S3)cc2)c1 (stereo not given),1.08,1.69
Cn1c(SCC(=O)Nc2ccc(OC(F)(F)F)cc2)nnc1-c1c[nH]c2ccccc12,1.04,0.696
COc1ccccc1C(=O)Nc1ccc(-c2nc3ncccc3o2)cc1,0.996,-0.036
CCCCC1(O)C(C)C(c2ccccc2)NC(c2ccccc2)C1C (stereo not given),0.941,-0.372
O=C(c1cnc(N2CCN(c3ccccn3)CC2)c2ccccc12)N1CCN(c2ccccn2)CC1,0.899,-2.58
COc1ccc(-n2c(C)nc3cc(C(=O)NCc4ccccc4OC)ccc32)cc1,0.998,-0.0427
COc1ccc(C)cc1NC(=O)Cn1ncc2c1-c1ccccc1OC2,0.925,-0.947
COc1ccc(CCNC(=O)Cn2c(=O)c3sccc3n(Cc3ccc(F)cc3)c2=O)cc1OC,1.06,1.3
Cn1nc(-c2ccc(Cl)cc2)c2cc(C(=O)Nc3cccc(C(F)(F)F)c3)sc21,1.1,1.93
COc1ccc(C(=O)Nc2c(-c3ccccc3)nc3cc(C)ccn23)c(OC)c1,0.979,-0.596
COc1ccc(NC(=O)NCCCN2CCC(Cc3ccccc3)CC2)cc1,1.06,0.0744
COc1ccc(C(=O)NCCc2cc3ccc(C)cc3[nH]c2=O)cc1OC,0.898,-1.31
CC(C)(C)c1ccc(-c2nnc(NC(=O)Nc3ccc(Cl)cc3)s2)cc1,0.91,-0.207
CC(C)CCN1CC(C(=O)NCc2ccccc2)CC1=O (stereo not given),1.09,2.31
COc1ccc(C2CC(=O)NC3=C2C(=O)CCC3)cc1OC (stereo not given),1.14,1.74
CCOC(=O)c1c(NC(=O)COc2cc(C)ccc2C(C)(C)C)sc2c1CCCC2,1.48,1.1
CC1CCN(Cc2ccc(NC(=O)C3CCN(c4nnc(-n5cccc5)s4)CC3)cc2)CC1,1.47,5.01
CCCc1cc(=O)[nH]c(SCc2nc3ccccc3[nH]2)n1,1.05&1.17,1.51&2.35
CCOc1ccc(-c2nc(C#N)c(N3CCN(Cc4ccccc4)CC3)o2)cc1,0.604,-4.35
# (cont.)
SMILES,CBX7 AlphaScr,CBX7 AlphaScr z-score
CC12CCC(C(=O)N3CCOCC3)(CC1=O)C2(C)C (stereo not given),1.05,1.47
COc1ccc(-c2noc(COc3ccc(C)c(C)c3)n2)cc1,1.43,0.483
CCOC(CNC(=O)c1c[nH]c2ccc(S(=O)(=O)N3CCC(C)CC3)cc2c1=O)OCC,1.07,0.725
Cc1oc(-c2ccccc2F)nc1CN1CCCC(C(=O)NCc2ccc(F)cc2)C1 (stereo not given),0.943,-0.37
Cc1c(Cl)cccc1-n1ncnc1-c1ccc(N(C)C)cc1,0.552,-6.27
CCCCn1c(=N)n(CC(O)COc2ccccc2OC)c2ccccc21 (stereo not given),0.914,-1.25
CNS(=O)(=O)c1cc(-c2nnc(Nc3cccc(C)c3)c3ccccc23)ccc1C,0.974,-0.495
COc1ccc(-c2nc3cc(NC(=O)c4ccccc4)ccc3o2)cc1,0.723,-7.67
COc1ccc(CC(=O)Nc2cccc(-c3nc4ncccc4o3)c2)cc1OC,0.985,-0.767
Cc1nc(Nc2ccc(C)c(F)c2)c2c3c(sc2n1)CCC3,1.04,1.22
CCN(CC)S(=O)(=O)c1ccc2c(c1)N(CC(=O)Nc1cccc(C#N)c1)C(=O)CO2,1.06,2.65
Cn1c(=O)c(=O)n(C)c2cc(S(=O)(=O)Nc3ccc(F)c(Cl)c3)ccc21,1.14,1.01
CC(O)(C#Cc1ccccc1)c1ccc(N2CCOCC2)c(F)c1 (stereo not given),1.01,0.138
CN(C(=O)c1cc(-c2ccc(Br)cc2)on1)c1ccccc1,0.904,-0.916
C=CCNC(=O)c1cc(-c2ccc(OC)cc2)nc2ccc(C(C)C)cc12,1.02,0.532
CCOC(=O)N1CCC(Nc2c(N3CCN(c4cc(C)ccc4C)CC3)c(=O)c2=O)CC1,1.01,0.224
Cc1cc(N2CCOCC2)nc2ccc(NC(=O)CCC(=O)Nc3ccc(F)cc3F)cc12,1.08,1.87
CCOc1ccc(NC(=O)C(NS(=O)(=O)c2ccc3c(c2)CCC(=O)N3)c2ccccc2)cc1 (stereo not given),0.962,-1.25
c1csc(-c2nc3ncccn3c2NC2CCCC2)c1,0.852,-0.148
O=C(CSc1ncc(-c2ccccc2)[nH]1)Nc1cccc(C(F)(F)F)c1,0.938,-1.65
COc1ccc(C2(C(=O)Nc3cccc(C(F)(F)F)c3)CCCC2)cc1OC,1.58,5.53
N#Cc1nc(COc2ccc(Br)cc2)oc1N1CCC(Cc2ccccc2)CC1,0.695,-15.7
CCN1CCc2c(sc(NC(=S)NC(=O)c3c(Cl)cnn3C)c2C(N)=O)C1,0.893,-2.64
O=C1CN(C(=O)CCC2CCCCC2)C(c2ccc(F)cc2)c2cc(Br)ccc2N1 (stereo not given),1.04,0.905
COc1ccc(-n2cc(C(=O)Nc3cc(Cl)ccc3OC)c3ccccc3c2=O)cc1,0.831,-2.17

# Record cards, as listed above. Order of screens: CBX7 AlphaScr | CBX7 AlphaScr z-score
# COc1ccc(CC(=O)Nc2cccc(-c3nc4ncccc4o3)c2)cc1OC is listed with 0.985 | -0.767
# CCOC(=O)N1CCC(Nc2c(N3CCN(c4cc(C)ccc4C)CC3)c(=O)c2=O)CC1 is listed with 1.01 | 0.224
# COc1ccc(C2(C(=O)Nc3cccc(C(F)(F)F)c3)CCCC2)cc1OC is listed with 1.58 | 5.53

# Next part
SMILES,CBX7 AlphaScr,CBX7 AlphaScr z-score
O=C1Nc2ccccc2Oc2cc([N+](=O)[O-])cc(Oc3ccccc3Br)c21,0.595,-5.87
CCN(CC)CCCNC(=O)c1cn(CC)c(=O)c2cc(OC)c(OC)cc12,1.05,0.719
Cc1cccc(N2CCN(C(=O)c3ccc(NC4=NC5CS(=O)(=O)CC5S4)cc3)CC2)c1C (stereo not given),0.885,-2.17
COc1ccc(Br)cc1CNC(=O)c1ccc2c(c1)ncn2C1CCCC1,0.851,-1.72
COc1ccc2nc(NC(=O)c3ccccc3C(=O)O)sc2c1,1.2,1.88
COc1ccc(NC(=O)CCN2CCN(C/C=C/c3ccccc3)CC2)cc1,1.2,1.91
O=C(COc1ccc(Cl)cc1)Nc1nc(-c2ccc(S(=O)(=O)N3CCOCC3)cc2)cs1,0.946,-1.44
Cc1ccc(-c2nnc(Nc3ccc(Cl)c(Cl)c3)c3ccccc23)cc1,0.93,-1.32
CC1(C)CC(=O)c2cnc(NCc3ccccc3)nc2C1,0.95,-0.563
CCc1ccc(OCC(O)CN2CCN(c3ccccc3OC)CC2)cc1 (stereo not given),0.943,-1.85
Cc1onc(-c2ccccc2Cl)c1C(=O)NCC12CC3CCC(CC(C3)C1)C2,0.914,-1.19
COc1ccc(-c2nc3cc(NC(=O)c4ccc(OCC(C)C)cc4)ccc3o2)cc1,1.02,1.16
O=C(O)C1=CCN(S(=O)(=O)c2ccc(Br)cc2)CC1,1.03,0.886
Cc1ccc(NC(=O)C(NS(=O)(=O)c2ccc3nc(C)sc3c2)C(C)C)cc1 (stereo not given),1.04,0.625
CCOC(=O)C1CCN(c2nc3ccc(CC)cc3s2)CC1,1.16,4.14
CN(C)c1cc(NC(=O)CN2CCOCC2)c2ccccc2n1,1.02,0.475
COc1cccc(-c2nc(-c3ccccc3)c(-c3cccs3)[nH]2)c1OC,0.428*,-0.569*
Cc1ccc(-c2nc(S(=O)(=O)c3ccc(C)cc3)c(SCC(N)=O)o2)cc1,0.925,-0.62
O=C(CCC1CC(=O)Nc2ccccc21)NCc1cccnc1 (stereo not given),1.58,1.18
O=C(Nc1c(F)cccc1F)N(CCCN1CCOCC1)Cc1cccnc1,1.09,0.0848
Cc1c(C(=O)N2CCCCCC2)oc2ccc(S(=O)(=O)N3CCCCC3)cc12,0.902,-1.35
Cc1ccc(-c2nc(CSCC(=O)NCc3ccc4c(c3)OCO4)c(C)o2)cc1,1.14,2.57
Cc1nc2ncnn2c(C)c1CCC(=O)NCc1ccc(Cl)cc1,1.08,1.69
CCCNC(=O)CSCc1nc(-c2ccc(OC)c(OC)c2)oc1C,0.951,-0.807
O=C(CCn1nc(-c2ccccc2)c2ccccc2c1=O)NC1CCCCC1,1.07,1.88
# The list continues:
SMILES,CBX7 AlphaScr,CBX7 AlphaScr z-score
O=C(NC1CCCC1)c1cc(-c2ccc(O)cc2)on1,1.01,0.327
COc1ccc(OC)c2[nH]c(=O)c(CCNC(=O)CCC3CCCC3)cc12,0.94,-0.778
COC(=O)c1ccc2c(c1)N(Cc1ccccc1F)C(=O)CS2=O (stereo not given),1.18,3.7
CCCCn1c(C(C)NC(=O)c2cccs2)nc2ccccc21 (stereo not given),0.998,-0.0191
Cc1ccc(C2C(=O)N(C3CCCCCC3)CC(=O)N2Cc2ccccc2)cc1 (stereo not given),0.949,-0.511
CCCN(C(=O)c1cn(C)c(=O)c2cc(OC)c(OC)cc12)c1ccc(CC)cc1,1.46,4.07
COc1ccc(-c2noc(CCC(=O)NCCCN3CC(C)CC(C)C3)n2)cc1 (stereo not given),0.948,-0.742
O=C(NC1CCCCCCC1)C1c2cccn2CC(=O)N1Cc1ccccc1 (stereo not given),1.02,0.0539
Cc1ccc(CCNC(=O)CCCc2cn(C)c3ccccc23)cc1,1.36,2.8
CCOCCCNC(=O)CN1CCN(Cc2ccccc2C)C1=O,1.01,0.354
Cc1cccc(NC(=O)CSc2nnc(Cc3cc(=O)[nH]c(=O)[nH]3)n2-c2cc(C)ccc2C)c1,1.14,0.291
Cc1nc2cc(-c3ccccc3)nn2c(C)c1CCC(=O)Nc1ccccc1,1.06,2.06
CC(=O)Oc1cccc(C(=O)Nc2cccc(-c3nc4ccccc4[nH]3)c2)c1,0.673,-11.7
Cc1ccc(S(=O)(=O)c2nc(-c3cccc(C)c3)oc2N2CCCCCC2)cc1,0.783,-1.94
Cc1cccc(CCNC(=O)C2CCN(S(=O)(=O)c3c(C)noc3C)CC2)c1,1.24,2.44
COc1ccc(NC(=O)c2ccc(CNc3c(N4CCCCC4)c(=O)c3=O)cc2)c(OC)c1,0.879,-0.278
C=CCn1c(SCC(=O)Nc2ccc(F)cc2)nnc1-c1cccs1,0.934,-0.632
COCC(C)NC(=O)c1cc(-c2ccc(OC)c(OC)c2)on1 (stereo not given),0.991,-0.124
CCOc1ccc(-c2cc(C(N)=O)c3ccccc3n2)cc1,1.12,2.62
COc1ccc(Br)cc1CN1C(=O)c2ccccc2C1C(=O)NC1CCCC1 (stereo not given),0.762,-2.82
COc1ccc2c(c1)c(CC(=O)NCCOc1ccccc1C)c(C)n2C(=O)c1ccc(Cl)cc1,1.02,0.589
COCCCNC(=O)c1cnn(-c2ccccc2)c1-n1cccc1,1.03,1.2
COc1ccc(-c2cc(C(=O)Nc3ccccc3F)c3ccccc3n2)cc1OC,1.08,1.74
COc1ccccc1-c1coc2c(CN(C)Cc3ccccc3)c(O)ccc2c1=O,1.02,0.311
Ic1ccc(-c2csc(Nc3ccc4ccccc4c3)n2)cc1,0.877,-1.95

# 2 entries from above, with values under each structure.
# Value order – CBX7 AlphaScr | CBX7 AlphaScr z-score
Cc1ccc(-c2nnc(Nc3ccc(Cl)c(Cl)c3)c3ccccc23)cc1
 : 0.93 | -1.32
Cc1c(Cl)cccc1-n1ncnc1-c1ccc(N(C)C)cc1
 : 0.552 | -6.27

# Remaining list, next part:
SMILES,CBX7 AlphaScr,CBX7 AlphaScr z-score
CN1CCN(c2ccc(Nc3ccnc4cc(Cl)ccc34)cc2)CC1,0.917,-0.114
O=C(c1cc(-c2ccc(Cl)cc2)nc2ccccc12)N1CCN(c2ncccn2)CC1,1.09,0.843
Cc1cccc(N2C(=O)C3C4c5ccccc5C(C)(c5ccccc54)C3C2=O)c1C (stereo not given),0.763,-2.67
CCN1C(=O)CSc2ccc(C(=O)NC3CCCC(C)C3C)cc21 (stereo not given),0.951,-1.3
CCOc1ccccc1-c1nc(-c2ccc(NC(=O)c3cccs3)cc2)no1,0.958,-0.418
CCCCCC1CCC(CCc2ccc(C#N)nc2)CC1 (stereo not given),1.06,0.723
COc1ccc(NC(=O)C2CCN(S(=O)(=O)c3cccc4cccnc34)CC2)cc1,1,0.0341
O=C(CC1Sc2ccccc2NC1=O)Nc1ccc(OC(F)F)cc1 (stereo not given),0.956,-1.19
Cc1ccc(-n2cc(C(=O)Nc3ccc(F)c(Cl)c3)c3ccccc3c2=O)cc1C,0.985,-0.507
CCn1cc(C(=O)Nc2ccc(S(N)(=O)=O)cc2)c(=O)c2ccc(C)nc21,1.01,0.0677
COC(=O)c1ccc2c(=O)n(CCC3=CCCCC3)c(SCc3cccnc3)nc2c1,0.976,-0.376
Cc1cc2cc(CCNC(=O)C(C)(C)Oc3ccc(Cl)cc3)c(=O)[nH]c2cc1C,0.993,-0.0901

# Retrieved by structure from the entries so far, 5 records:
SMILES,CBX7 AlphaScr,CBX7 AlphaScr z-score
CCOc1ccccc1-c1nc(-c2ccc(NC(=O)c3cccs3)cc2)no1,0.958,-0.418
Cc1cccc(N2C(=O)C3C4c5ccccc5C(C)(c5ccccc54)C3C2=O)c1C (stereo not given),0.763,-2.67
Cc1ccc(-n2cc(C(=O)Nc3ccc(F)c(Cl)c3)c3ccccc3c2=O)cc1C,0.985,-0.507
CCn1cc(C(=O)Nc2ccc(S(N)(=O)=O)cc2)c(=O)c2ccc(C)nc21,1.01,0.0677
O=C(c1cc(-c2ccc(Cl)cc2)nc2ccccc12)N1CCN(c2ncccn2)CC1,1.09,0.843

# High-throughput results deposited in PubChem by several laboratories.
